TRPML1 agonist: agonists of human TRPML1 channel; 410,000 tested, 0.12% active; TRPML1-expressing cells, Ca2+ dye fluorescence, FDSS; host cell line not named in the record; reference of the full effect not given here; activation, % (concentration not given with the values); Q9GZU1; in the data active = activation above about 50%; inconclusive = about 30% to 50%; inactive = below about 30%; further: 0% is about no effect; the text of the record puts the active cut at 80%
Target sequence (Q9GZU1 whole entry, looked up): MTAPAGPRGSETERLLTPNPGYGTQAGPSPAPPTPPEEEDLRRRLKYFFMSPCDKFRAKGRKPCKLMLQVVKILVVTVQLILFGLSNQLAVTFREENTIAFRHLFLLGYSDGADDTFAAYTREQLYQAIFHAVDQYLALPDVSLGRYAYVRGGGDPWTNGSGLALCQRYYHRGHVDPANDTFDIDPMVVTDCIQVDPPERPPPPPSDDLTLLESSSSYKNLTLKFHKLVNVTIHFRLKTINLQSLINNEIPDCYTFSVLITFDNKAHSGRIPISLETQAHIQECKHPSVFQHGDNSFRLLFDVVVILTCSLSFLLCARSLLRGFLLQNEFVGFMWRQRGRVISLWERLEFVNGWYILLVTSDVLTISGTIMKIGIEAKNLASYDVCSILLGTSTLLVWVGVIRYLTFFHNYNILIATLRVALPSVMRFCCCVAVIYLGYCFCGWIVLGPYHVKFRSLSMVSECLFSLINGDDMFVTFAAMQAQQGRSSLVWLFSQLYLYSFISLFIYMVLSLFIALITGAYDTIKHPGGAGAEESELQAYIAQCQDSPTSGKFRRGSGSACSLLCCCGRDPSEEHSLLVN
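Tet-induced TRPML1-DL cells, 1,500 per well, cultured overnight, were loaded with a no-wash Ca2+ dye for 45–90 min. Calcium fluorescence was recorded on the FDSS for 110 s after compound addition, before the EC80 agonist (4 uM 54-4) was added.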
TRPML1 blocker: inhibitors of human TRPML1 channel | TRPML1-inducible cells, Ca2+ dye fluorescence, FDSS; stronger effect = lower value; inhibition of EC80 agonist-evoked calcium signal | activity change, negative = inhibition, % (no concentration beside the values) | 390,000 tested, 0.02% active | AID 624415; in the data active means activity change below about -50%; inconclusive means about -30% to -50%; inactive means above about -30%;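 further: stimulus is agonist 54-4 at its EC80 concentration; on the % scale 0 is the no-effect control and ±100 the full control effect; compound concentration not given in the record; the text of the record puts the active cut at -80%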
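TRPML1-DL cells, Tet-induced overnight (~16 h, 37 °C) at 1,500 cells/well, were loaded with Ca8 no-wash dye plus quencher for 45-90 min at room temperature. Compounds were pinned during FDSS kinetic reading; agonist 54-4 at EC80 (4 uM final) then added.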
* hit, by the source's call; u = inconclusive. Some of the compounds tested, so the mix of outcomes need not match the whole.

smiles | TRPML1 agonist | TRPML1 blocker
COc1cccc(N2CCN(C(=O)Cn3ncc4c5ccccc5n(C)c4c3=O)CC2)c1 | 1.5 | 18.0
Cc1ccc(NC(=O)C(Cc2c[nH]c3ccccc23)NC(=O)OC(C)(C)C)c(C)c1 (stereo not given) | 0.0 | 58.2
COc1ccc(C2=CC(c3ccccc3F)n3ncc(C(=O)Nc4ccc(C)cc4)c3N2)cc1 (stereo not given) | 1.2 | -10.6
CCOc1ccc(NC(=O)CCc2c(C)nc3c(-c4ccccc4)c(C)nn3c2C)cc1 | 1.0 | -14.7
COc1ccc(CNc2ncnc3c2c(-c2ccccc2)cn3-c2cccc(C)c2)cc1 | 1.4 | -2.2
COC(=O)c1ccc(NC(=O)Nc2nnc(N(C)C3CCCCC3)s2)cc1 | -0.1 | 54.8
C=C1CCN(C(CC(C)C)C(=O)NCc2ccc(OC)cc2)S(=O)(=O)c2ccccc21 (stereo not given) | 2.9 | 0.4
CC1=C(C(=O)Nc2ccc(C)cc2C)C(c2ccc(O)cc2)n2nc(SCC(=O)c3ccc(C)cc3)nc2N1 (stereo not given) | -0.3 | 28.8
Cc1c(C(=O)Nc2ccc(Br)cc2F)sc2ncnc(N(C)C3CCCCC3)c12 | 2.8 | 19.9
Cc1ccc(S(=O)(=O)c2nc(-c3cccc(Br)c3)oc2N2CCCCCC2)cc1 | -0.6 | 3.2
CCOC(=O)c1sc2ncn(CC(=O)Nc3cc(C)cc(C)c3)c(=O)c2c1C | -0.7 | -6.2
Cc1c(C)n(Cc2ccccc2)c2ccc(C(=O)NCc3ccc(OC(C)C)cc3)cc12 | 2.8 | 0.7
CCN(CCCNC(=O)c1cc2cc3cc(OC)ccc3nc2s1)c1ccccc1 | 0.1 | -5.0
Nc1c(C(=O)Nc2ccccc2)nnn1Cc1ccc(F)cc1Cl | 12.9 | -5.9
O=C(c1ccc2c(c1)N(Cc1ccc(Cl)cc1)C(=O)c1ccccc1S2=O)N1CCC(Cc2ccccc2)CC1 (stereo not given) | 1.1 | 14.9
Cc1ccc(CN(C(=O)COc2ccc(C(C)(C)C)cc2)C2CCS(=O)(=O)C2)o1 (stereo not given) | 1.6 | 3.8
COc1cccc(Cc2nc3ccccc3nc2SCC(=O)Nc2ccccc2F)c1 | 4.6 | 64.9
O=C(CCCCCn1c(=O)[nH]c2ccccc2c1=O)NCc1ccccc1 | -0.8 | 20.1
Cc1ccc(C)c(NC(=O)CSc2nc(-c3ccccc3)c(C#N)c(=O)[nH]2)c1 | -0.3 | 1.7
COc1ccc(/C=C/c2onc(C)c2S(=O)(=O)N2CCC(C(=O)N3CCCCC3)CC2)cc1 | 1.7 | -9.4
O=C(NCc1cccc(F)c1)C1CCN(c2nc3ccccc3nc2C(F)(F)F)CC1 | -0.3 | 6.9
COC(=O)c1ccccc1NC(=O)Cn1c(=O)n(CCCCC(=O)NCc2ccc3c(c2)OCO3)c(=O)c2ccccc21 | -1.5 | -14.5
COC(=O)c1cc2occc2n1CC(=O)Nc1ccc(C(C)C)cc1 | -0.8 | 16.2
COc1cc(OC)c2c(c1C(CCN1CCCCC1)c1ccc(N(C)C)cc1)OC(=O)CC2c1ccc(N(C)C)cc1 (stereo not given) | 0.4 | -9.6
Cc1ccc(CCNC(=O)c2ccc(CS(=O)(=O)c3ccc(Cl)cc3)o2)cc1 | 2.4 | 3.9
CCN1CCC(N(Cc2cccc(OC)c2)C(=O)Nc2cccc(C)c2C)CC1 | 0.4 | -6.9
COc1ccc(NC(=O)Nc2cccc(-c3noc(C)n3)c2)cc1 | 0.5 | -22.8
CCOc1ccc(NC(=O)CSc2nc3ccsc3c(=O)n2C(C)CC)cc1 (stereo not given) | 3.2 | 12.2
CCc1cccc(C)c1NC(=O)CSc1nc2c(c(=O)[nH]1)CCC2 | 2.8 | -11.5
CC(C)C(=O)Nc1ccc2nc(SCC(=O)N3CCCC3)sc2c1 | 1.3 | 6.8
COc1ccc(NC(=O)Cn2cc(C(=O)c3cccs3)c3ccccc32)cc1 | 0.2 | -20.0
Cc1ccc(CNC(=O)CSc2nc(=O)n(Cc3ccco3)c3c2CCC3)cc1 | 2.0 | 15.4
Cc1ccc(S(=O)(=O)NCC2CCC(C(=O)NCCc3ccc(Cl)cc3)CC2)cc1 (stereo not given) | 0.4 | 5.6
Cc1ccc(S(=O)(=O)Nc2ccc(-c3ccc(N4CCCCCC4)nn3)cc2)cc1C | 0.1 | -1.9
CCOC(=O)N1CCc2c(sc3c2C(=O)NC(c2ccc(C(=O)OC)cc2)N3)C1 (stereo not given) | 0.0 | -10.1
COCCn1c(C)cc(O)c(C(c2cccc(F)c2)N2CCN(c3ccccc3)CC2)c1=O (stereo not given) | 0.7 | -12.7
COc1ccc(CCNC(=O)Cn2cc(S(=O)(=O)Cc3ccccc3F)c3ccccc32)cc1OC | 1.1 | 4.8
COc1ccc(CCNC(=O)Cc2c(C)c3cc4c(C(C)(C)C)coc4c(C)c3oc2=O)cc1 | 0.6 | 8.2
O=C(CSc1nccn1Cc1ccccc1)Nc1ccc2c(c1)OCO2 | 3.5 | 4.8
CN(C)c1ccc(C(=O)Oc2cc(O/N=[N+](\[O-])N(C)C)c([N+](=O)[O-])cc2[N+](=O)[O-])cc1 | 0.5 | -9.6
COc1ccc(CNC(=O)CN(c2ccccc2OC)S(=O)(=O)c2ccc(C)cc2)cc1 | 0.6 | u
CCc1nnc2c(Nc3cccc(F)c3)nc3ccc(C(=O)c4ccccc4)cc3n12 | -0.4 | -0.3
Cc1cc(C)cc(-n2c(SCC(=O)N3CCOCC3)nc3c([nH]c4ccccc43)c2=O)c1 | 0.0 | -7.8
CC(C)CCOc1ccc(Cn2c(=O)oc3ccccc32)cc1 | 2.8 | 0.8
O=C(NCC1CCN(Cc2ccccc2Cl)CC1)c1cc2ccc3cccnc3c2[nH]1 | -0.7 | -17.2
Cc1cccc(C(=O)N2CCCCC2CCN2CCCCC2)c1 (stereo not given) | 0.2 | -10.9
Cc1ccc2[nH]cc(C(c3ccccc3)c3ccc(C)s3)c2c1 (stereo not given) | 1.3 | -16.1
O=C(CCCc1nc(-c2ccccc2)no1)Nc1cc(C(F)(F)F)cc(C(F)(F)F)c1 | 0.1 | -6.0
Cc1ccc(Cn2c(SCc3ccc(C(=O)NC4CCCCC4)cc3)nc3ccncc32)cc1 | 0.2 | 16.8
O=C(CSc1nnc(CNC(=O)c2c(F)cccc2Cl)o1)Nc1ccccc1F | -0.4 | -25.4
CCOc1cc(C(=O)N2CC(=O)Nc3ccc(C)cc3C2c2ccccc2)cc(OCC)c1OCC (stereo not given) | -0.8 | -13.7
COc1ccc(-c2nn3c(=O)cc(CN4CCN(C(=O)Nc5ccc(C)c(Cl)c5)CC4)nc3s2)cc1 | -0.7 | 2.2
COc1ccccc1N1CCN(C(=O)c2nc(-c3ccc(C)cc3)n3c2CCCCC3)CC1 | 0.9 | 4.4
O=c1c2cc3c(cc2nc2sc(Nc4ccc(F)c(Cl)c4)nn12)OCO3 | -0.4 | -13.5
Cc1cc(Cl)ccc1OCC(=O)N(Cc1sccc1C)C1CCS(=O)(=O)C1 (stereo not given) | -0.1 | 15.7
COc1ccc(-c2nc3c(c(SCc4ccc(Br)cc4)n2)Cc2c(CO)cnc(C)c2O3)cc1 | 0.6 | 23.2
CCCCCNC(=O)C1CCC(Cn2c(=O)c3sccc3n(CC(=O)N3CCCC3)c2=O)CC1 (stereo not given) | 0.4 | -8.8
CC(=O)NCCNC(=O)CCCc1nnc2n(CCC(C)C)c(=O)c3sccc3n12 | -0.2 | -0.9
COc1cccc(-n2cc(C(=O)NCc3cccc(Cl)c3)c3ccccc3c2=O)c1 | 3.7 | 8.7
Cc1ccc(NC(=O)Cc2ccc(NC(=O)N3CCCCc4ccccc43)cc2)cc1Cl | 0.0 | 8.4

Additional entries follow.
smiles | TRPML1 agonist | TRPML1 blocker
CCOc1cc(C(=O)N2CCc3c([nH]c4ccccc34)C2c2ccccc2)cc(OCC)c1OCC (stereo not given) | -0.7 | 20.1
CCN(CC)C(=O)c1sc2c(c1C)c(=O)n(-c1ccc(Cl)c(Cl)c1)c(=O)n2Cc1ccccc1C#N | 1.3 | 1.6
O=C1CCCc2cc(S(=O)(=O)N3CCCC(C(=O)NCc4ccc(Cl)cc4)C3)ccc2N1 (stereo not given) | 1.8 | 6.3
Cc1ccc(-c2cc(NC(=O)C(C)Oc3ccccc3F)on2)cc1 (stereo not given) | 0.2 | 6.2
CCC(=O)N1CCc2cc(OC)c(OC)cc2C1COc1ccc2c(C)cc(=O)oc2c1 (stereo not given) | 0.8 | 23.2
CCCN(CCC)C(=O)C1CCCN(c2ncnc3onc(-c4ccc(F)cc4)c23)C1 (stereo not given) | -0.2 | 17.4
Clc1ccccc1-c1nnc(-c2ccccc2CNc2ccccc2)o1 | 3.4 | 23.7
Cc1cccc(NC(=O)CCNS(=O)(=O)c2ccc3c(c2)CCCC(=O)N3)c1C | 1.0 | 14.1
CC(=O)c1cc(-c2ccc(F)cc2)n(CCC(=O)NC2CCCCC2)c1C | 1.4 | 15.3
Cc1ccccc1OCc1ccc(-c2nc(C#N)c(NCCCN(C)C)o2)o1 | -0.8 | 18.2
O=C1C2=C(Nc3ccccc3SC2c2c(F)cccc2Cl)c2ccccc21 (stereo not given) | -0.7 | -11.5
COc1ccc(-c2nc3ccccc3o2)cc1NC(=O)c1cccc2c(Cl)cccc12 | -0.4 | 21.2
COc1ccccc1N1CCN(C(=O)Cn2cnc3sc(C)c(S(=O)(=O)N4CCC(C)CC4)c3c2=O)CC1 | -0.5 | 3.8
Cc1ccc(C)c(Cn2c(=O)n(CCCC(=O)NCc3ccc4c(c3)OCO4)c(=O)c3sccc32)c1 | 1.6 | 0.0
Cc1ccc(NC2=C(CC(=O)O)C(c3ccc(F)cc3)N(c3ccc(C)cc3)C2=O)cc1 (stereo not given) | -0.8 | -7.0
CCn1c(C)c(C)c2cc(C(=O)NCC(C)c3ccccc3)ccc21 (stereo not given) | 2.5 | -15.6
COc1ccc2c(c1)CC(C(=O)NCCCN1CCN(c3ccccc3F)CC1)CO2 (stereo not given) | -0.6 | 20.8
Cn1ccc2c(OCC(=O)Nc3ccc(OC(F)(F)F)cc3)cccc2c1=O | -0.2 | 12.3
CNC(=O)C1CCC(Cn2c(=O)c3sccc3n(CC(=O)N3CCCC3)c2=O)CC1 (stereo not given) | 1.5 | -1.5
COc1ccc(-c2noc(-c3ccc(NC(C)c4ccccc4)c([N+](=O)[O-])c3)n2)cc1OC (stereo not given) | -1.2 | -4.5
CCc1nn(CC(=O)NCCN(CC(C)C)CC(C)C)c(=O)c2cc3sc(C)cc3n12 | 1.5 | -14.5
Cc1cc(NC(=O)CN2C(=O)CSc3ccc(S(=O)(=O)N(C)C)cc32)ccc1Br | 0.9 | -2.4
Cc1ccc(CNC(=O)C2CCN(C(=O)c3ccc(-n4ccc5ccccc54)s3)CC2)cc1 | 0.9 | -18.1
CCOC(=O)c1ccc(N2C(=O)c3n[nH]c(C)c3C2c2ccc(CC)cc2)cc1 (stereo not given) | 2.9 | -10.3
COc1cc(NC(=O)c2oc3c(c2C)-c2nn(Cc4cccc(Cl)c4)cc2CC3)cc(OC)c1 | 1.3 | 61.4
COc1ccc(NC(=O)c2cnc(Nc3ccc(C)c(Cl)c3)c3ccccc23)cc1OC | 0.3 | 8.6
N#Cc1ccccc1Cn1c(=O)n(-c2ccc(F)c(Cl)c2)c(=O)c2sccc21 | 1.9 | -0.4
Cc1ccc(OC(=O)c2cc(-c3ccc4c(c3)OCCO4)on2)cc1C | 0.2 | 9.3
O=C(CSc1nnc(-c2ccccc2)c(-c2ccccc2)n1)NCCc1ccccc1 | 2.3 | 2.0
CCCCn1c(CNC(=O)c2ccc(OC)cc2)nnc1SCC(=O)Nc1ccc(OC)cc1 | 0.2 | -4.2
Cc1ccc(OCC(=O)Nc2c(Cl)ccc3nsnc23)cc1C | 5.6 | 20.2
O=C(NCCc1ccc(Cl)cc1)c1cnc2sc(N3CCCCC3)nn2c1=O | -1.3 | -5.0

6 compounds picked at random from those above, as already listed:
smiles | TRPML1 agonist | TRPML1 blocker
CCc1nn(CC(=O)NCCN(CC(C)C)CC(C)C)c(=O)c2cc3sc(C)cc3n12 | 1.5 | -14.5
O=C(NCCc1ccc(Cl)cc1)c1cnc2sc(N3CCCCC3)nn2c1=O | -1.3 | -5.0
CCCCn1c(CNC(=O)c2ccc(OC)cc2)nnc1SCC(=O)Nc1ccc(OC)cc1 | 0.2 | -4.2
Cc1cc(NC(=O)CN2C(=O)CSc3ccc(S(=O)(=O)N(C)C)cc32)ccc1Br | 0.9 | -2.4
COc1cc(NC(=O)c2oc3c(c2C)-c2nn(Cc4cccc(Cl)c4)cc2CC3)cc(OC)c1 | 1.3 | 61.4
O=C(CSc1nnc(-c2ccccc2)c(-c2ccccc2)n1)NCCc1ccccc1 | 2.3 | 2.0
